Screening data as filed in PubChem.
FGF22 binding = binders of human FGF22 protein, primary screen, FGF22 synaptogenesis inhibitor project, biophysical, thermal shift, single point. Fibroblast growth factor 22 (Homo sapiens), Q9HCT0. recombinant FGF22 thermal shift, SYPRO orange fluorescence; percent of sucrose octasulfate shift, DMSO zero. calls only at 9.99 µM. 340,000 compounds, 1.5% hits. AID 651658, 2012;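 active = melting point raised past a set limit in the mean and every replicate; three in four hits are not shown here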
Target sequence (Q9HCT0 whole entry, looked up): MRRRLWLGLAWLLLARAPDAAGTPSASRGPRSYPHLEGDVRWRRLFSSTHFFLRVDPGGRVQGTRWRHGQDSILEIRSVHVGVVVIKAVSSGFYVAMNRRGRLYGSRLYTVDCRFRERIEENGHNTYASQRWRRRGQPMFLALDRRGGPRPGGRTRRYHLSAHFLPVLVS
Ecoli rRNA inh = reduced GFP signal of wild-type E. coli, primary screen, bacterial rRNA inhibitor project, GFP/RFP fluorescence, OD600, single point; E. coli WT GFP vs humanized-ribosome RFP mutants, 24 h; hits give low values; DMSO median 0, no signal -100; GFP signal change (wild-type ribosome), % (test concentration not listed); 350,000 compounds, 1.6% hits; AID 720706, 2013;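 active = significant combined selectivity score with lowered wild-type GFP, culture density cut under 30%, mutant RFP and density less affected; inactive = any of these conditions unmet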; also: one replicate is shown; some compounds called inactive have numbers as strong as hits
Ecoli rRNA inh OD600 = second read-out of Ecoli rRNA inh, no call of its own (marks repeat the call); OD600 change, %; measured here: OD600 growth;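 optical density of the mix in the first replicate; 0 = DMSO median and -100 = no signal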
Ecoli rRNA inh RFP = further read-out of Ecoli rRNA inh, marked with its call; RFP signal change, %; measured here: RFP humanized mutant strains;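 first replicate; 0 = DMSO median and -100 = no signal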
* = called active by the depositor; i = inactive. This is a subset (hit frequency here may not be typical).

The first 8 compounds, to show the layout:
No.	canonical_smiles	Ecoli rRNA inh RFP	FGF22 binding	Ecoli rRNA inh OD600	Ecoli rRNA inh
1	C[C@@H]1CN([C@@H](C)CO)C(=O)c2cc(NC(=O)Cn3cnnn3)ccc2O[C@@H]1CN(C)C	0.3	i	5	8
2	CC(C)NC(=O)Nc1cccc2c1O[C@@H](CN(C)Cc1ccc3c(c1)OCO3)[C@H](C)CN([C@@H](C)CO)C2=O	-2.3	i	-17	-9
3	C[C@H](CO)N1C[C@H](C)[C@@H](CN(C)C(=O)Nc2ccccc2)Oc2c(NS(=O)(=O)c3ccc(Cl)cc3)cccc2C1=O	0.7	i	-10	-9
4	Cc1ccc(-c2ccc3c(c2)O[C@H](CN(C)C(=O)CN(C)C)[C@H](C)CN([C@@H](C)CO)S3(=O)=O)cc1	0.1	i	4	2
5	C[C@H]1CN([C@@H](C)CO)S(=O)(=O)c2ccc(C#Cc3cccnc3)cc2O[C@@H]1CN(C)C	1.6	i	15	2
6	C[C@@H]1CCCCO[C@@H](CN(C)Cc2ccncc2)[C@@H](C)CN([C@H](C)CO)C(=O)c2cc(NC(=O)Nc3ccc(F)cc3)ccc2O1	-0.1	i	-2	-2
7	COCC(=O)N1C[C@@H]2[C@H](c3ccccc31)[C@H](CO)N2C(=O)Nc1ccccc1Cl	0.6	i	5	1
8	CS(=O)(=O)Nc1ccc2c(c1)[C@@H]1C[C@@H](CC(=O)NCC3CC3)O[C@H](CO)[C@@H]1O2	-0.7	i	1	6

The whole of this part, previewed entries included:
No.	canonical_smiles	Ecoli rRNA inh RFP	FGF22 binding	Ecoli rRNA inh OD600	Ecoli rRNA inh
1	C[C@@H]1CN([C@@H](C)CO)C(=O)c2cc(NC(=O)Cn3cnnn3)ccc2O[C@@H]1CN(C)C	0.3	i	5	8
2	CC(C)NC(=O)Nc1cccc2c1O[C@@H](CN(C)Cc1ccc3c(c1)OCO3)[C@H](C)CN([C@@H](C)CO)C2=O	-2.3	i	-17	-9
3	C[C@H](CO)N1C[C@H](C)[C@@H](CN(C)C(=O)Nc2ccccc2)Oc2c(NS(=O)(=O)c3ccc(Cl)cc3)cccc2C1=O	0.7	i	-10	-9
4	Cc1ccc(-c2ccc3c(c2)O[C@H](CN(C)C(=O)CN(C)C)[C@H](C)CN([C@@H](C)CO)S3(=O)=O)cc1	0.1	i	4	2
5	C[C@H]1CN([C@@H](C)CO)S(=O)(=O)c2ccc(C#Cc3cccnc3)cc2O[C@@H]1CN(C)C	1.6	i	15	2
6	C[C@@H]1CCCCO[C@@H](CN(C)Cc2ccncc2)[C@@H](C)CN([C@H](C)CO)C(=O)c2cc(NC(=O)Nc3ccc(F)cc3)ccc2O1	-0.1	i	-2	-2
7	COCC(=O)N1C[C@@H]2[C@H](c3ccccc31)[C@H](CO)N2C(=O)Nc1ccccc1Cl	0.6	i	5	1
8	CS(=O)(=O)Nc1ccc2c(c1)[C@@H]1C[C@@H](CC(=O)NCC3CC3)O[C@H](CO)[C@@H]1O2	-0.7	i	1	6
9	C[C@@H]1CN([C@@H](C)CO)C(=O)c2cc(NC(=O)Nc3cccc4ccccc34)ccc2O[C@H]1CN(C)C(=O)Nc1ccc2c(c1)OCO2	-4.1	i	-9	-6
10	C[C@@H]1CN([C@H](C)CO)S(=O)(=O)c2ccc(C#CC3CC3)cc2O[C@@H]1CN(C)C(=O)c1cccnc1	-2.6	i	-5	3
11	CCNC(=O)Nc1ccc2c(c1)C(=O)N(C)[C@@H]1CC[C@H](CC(=O)NC3CCCCC3)O[C@H]1CO2	-2.3	i	12	3
12	CC(C)NC(=O)N(C)C[C@@H]1Oc2cc(C#CCN(C)C)ccc2S(=O)(=O)N([C@@H](C)CO)C[C@@H]1C	-0.1	i	5	5
13	COc1ccccc1-c1ccc2c(c1)[C@@H]1[C@@H](CCN1C(=O)C1CC1)[C@H](CO)N2	-2.7	i	-6	-2
14	C[C@H]1CN([C@@H](C)CO)S(=O)(=O)c2ccc(-c3ccncc3)cc2O[C@@H]1CN(C)C(=O)Nc1ccc(F)cc1	-0.9	i	-10	-2
15	Cc1noc(C)c1NC(=O)Nc1ccc2c(c1)CC(=O)N([C@H](C)CO)C[C@H](C)[C@H](CN(C)C(=O)Nc1ccc(C(F)(F)F)cc1)O2	-1.1	i	4	3
16	C[C@H](CO)N1C[C@H](C)[C@@H](CN(C)C(=O)Nc2ccc(C(F)(F)F)cc2)Oc2ccc(NC(=O)Cn3cnnn3)cc2CC1=O	-0.5	i	3	1
17	COCC(=O)N1CC2(CN[C@@H](CO)c3c2c2ccc(OC)cc2n3C)C1	-0.7	i	8	7
18	COc1cccc(-c2cccc(-c3nc(C(=O)O)cc4c3[C@@H](CCO)N(S(=O)C(C)(C)C)C4)c2)c1 (stereo partly drawn)	-1.6	i	10	5
19	C[C@H](CO)N1C[C@H](C)[C@H](CN(C)Cc2ccccc2)Oc2c(NC(=O)c3ccncc3)cccc2C1=O	-0.5	i	-11	2
20	CCC(=O)N(C)C[C@H]1Oc2cc(C#Cc3cccnc3)ccc2S(=O)(=O)N([C@@H](C)CO)C[C@H]1C	0.9	i	-2	-3
21	C[C@H](CO)N1C[C@H](C)[C@@H](CN(C)Cc2ccc3c(c2)OCO3)Oc2ccc(NC(=O)Nc3ccc(C(F)(F)F)cc3)cc2C1=O	29	i	-45	-8
22	C[C@@H]1CN([C@H](C)CO)C(=O)c2cc(NC(=O)Nc3ccc(C(F)(F)F)cc3)ccc2O[C@H]1CN(C)Cc1ccc2c(c1)OCO2	-2.0	i	-2	1
23	C/C=C/c1cnc2c(c1)C(=O)N([C@@H](C)CO)C[C@H](C)[C@H](CN(C)Cc1ccncc1)O2	0.0	i	9	5
24	CC(C)CC#Cc1cnc2c(c1)C(=O)N([C@H](C)CO)C[C@@H](C)[C@@H](CN(C)C(=O)Cc1ccccc1)O2	-0.5	i	-1	2
25	C[C@@H]1CN([C@@H](C)CO)C(=O)c2cc(NS(=O)(=O)c3ccccc3)ccc2O[C@@H](C)CCCCO[C@@H]1CN(C)C(=O)Nc1ccccc1	-1.7	i	-4	2
26	O=C(c1ccccc1)N1CC(=O)N2[C@H](CO)[C@@H](c3ccc(C#CC4CC4)cc3)[C@H]2C1	-0.1	i	-5	0
27	C[C@@H](NC(=O)[C@@H]1N[C@@H]2c3ccc(C4=CCCC4)c(=O)n3C[C@@H]2[C@H]1CO)c1ccccc1	-0.7	i	-1	1
28	C[C@@H]1CN([C@@H](C)CO)C(=O)c2cc(Br)cnc2O[C@@H]1CN(C)C(=O)NC1CCCC1	-2.3	i	5	3
29	O=C(C[C@H]1CC[C@@H]2[C@H](COC[C@H](O)CN2C(=O)c2cccnc2)O1)NCc1ccc(-c2ccccc2)cc1	4.4	i	3	1
30	C[C@H](O)C#Cc1ccc2c(c1)O[C@@H](CN(C)C(=O)C1CC1)[C@H](C)CN([C@@H](C)CO)S2(=O)=O	1.8	i	6	6
31	C[C@H]1CN([C@@H](C)CO)C(=O)c2cc(-c3ccncc3)cnc2O[C@@H]1CN(C)Cc1ccc(F)cc1	-3.1	i	11	7
32	Cc1cccc(CN(C)C[C@@H]2OCc3cnnn3CCCC(=O)N([C@H](C)CO)C[C@@H]2C)c1	-1.4	i	-6	-1
33	C[C@@H]1CN([C@H](C)CO)C(=O)c2cccc(NS(=O)(=O)c3ccc(Cl)cc3)c2O[C@@H]1CN(C)C(=O)Nc1ccc2c(c1)OCO2	-0.2	i	-12	-7
34	O=C(Nc1cccc(F)c1)N1C[C@@H]2[C@H](c3ccccc31)[C@H](CO)N2C(=O)Cc1ccccc1	-12	i	-77	-52
35	C/C=C/c1ccc2c(c1)O[C@H](CN(C)C)[C@H](C)CN([C@@H](C)CO)S2(=O)=O	-0.1	i	6	4
36	CC(=O)N1[C@@H]2c3cccc(=O)n3C[C@H]1[C@H](CO)[C@H]2C(=O)NCC1CCCCC1	0.8	i	3	2
37	CC(=O)N1CC2(C1)[C@H](c1ccc(-c3ccc(F)cc3)cc1)[C@@H](CO)N2C(C)=O	-3.8	i	3	0
38	C[C@H]1CN([C@@H](C)CO)C(=O)Cc2cc(NS(=O)(=O)c3ccccc3)ccc2O[C@H]1CN(C)S(C)(=O)=O	-0.9	i	2	3
39	COc1ccc(S(=O)(=O)N(C)C[C@@H]2Oc3ccc(NC(=O)Cc4cn(C)c5ccccc45)cc3CC(=O)N([C@@H](C)CO)C[C@H]2C)cc1	9.4	i	0	3
40	C[C@H](CO)N1C[C@H](C)[C@@H](CN(C)Cc2ccncc2)Oc2ncc(C#Cc3cccnc3)cc2C1=O	3.5	i	-1	-4
41	C[C@@H]1CN([C@H](C)CO)C(=O)c2c(c3ccccc3n2C)-c2ccccc2CO[C@H]1CN(C)Cc1cccc2c1OCCCO2	24	i	-26	-5
42	O=C(C[C@@H]1C=C[C@H](NC(=O)C2CC2)[C@H](CO)O1)NCC1CC1	-2.6	i	0	3
43	COc1cccc(S(=O)(=O)N(C)C[C@@H]2Oc3ncc(-c4cccc(C(=O)N(C)C)c4)cc3C(=O)N([C@H](C)CO)C[C@H]2C)c1	-1.1	i	0	-11
44	C[C@H](CO)N1C[C@H](C)[C@H](CN(C)CC2CCOCC2)Oc2cc(C#Cc3cccnc3)ccc2S1(=O)=O	-2.6	i	0	5
45	CCCNC(=O)Nc1ccc2c(c1)C(=O)N(C)C[C@H](OC)[C@H](C)CN[C@H](C)CO2	-0.5	i	-2	4
46	Cc1ccc(-c2cnc3c(c2)C(=O)N([C@@H](C)CO)C[C@H](C)[C@@H](CN(C)C)O3)cc1	1.8	i	-6	2
47	COc1ccc(NC(=O)N(C)C[C@H]2OCCCC[C@@H](C)Oc3ccc(NS(=O)(=O)c4cn(C)cn4)cc3C(=O)N([C@@H](C)CO)C[C@@H]2C)cc1	-1.3	i	6	1
48	C[C@@H]1CN([C@H](C)CO)C(=O)Cc2cc(NC(=O)Nc3cccc4ccccc34)ccc2O[C@H]1CN(C)Cc1ccc(C(=O)O)cc1	2.3	i	1	-2
49	C[C@H]1CCCCO[C@H](CN(C)C(=O)Cc2ccccc2)[C@@H](C)CN([C@@H](C)CO)C(=O)c2cc(NC(=O)C3CCCCC3)ccc2O1	2.0	i	-18	-7
50	C[C@@H]1CCCCO[C@@H](CN(C)C(=O)CCC(F)(F)F)[C@H](C)CN([C@H](C)CO)C(=O)c2cc(NS(=O)(=O)c3cccs3)ccc2O1	4.5	i	-5	-2

Remaining list, next part
No.	canonical_smiles	Ecoli rRNA inh RFP	FGF22 binding	Ecoli rRNA inh OD600	Ecoli rRNA inh
51	O=C(c1cnccn1)N1CC2(C1)[C@H](c1ccccc1)[C@H](CO)N2C(=O)c1ccccc1	4.3	i	2	1
52	COc1ccc(S(=O)(=O)N(C)C[C@@H]2Oc3ccc(NS(=O)(=O)c4ccc(C)cc4)cc3C(=O)N([C@@H](C)CO)C[C@H]2C)cc1	4.4	i	-15	-7
53	C[C@@H]1CN([C@H](C)CO)C(=O)c2cccc(NC(=O)C3CC3)c2O[C@H]1CN(C)Cc1ccc(C(=O)Nc2ccccc2N)cc1	-1.6	i	-6	-6
54	C/C=C/c1cnc2c(c1)C(=O)N([C@H](C)CO)C[C@@H](C)[C@H](CN(C)C(=O)Cc1ccccc1)O2	-1.7	i	12	-3
55	COc1ccccc1-c1cnc2c(c1)C(=O)N([C@@H](C)CO)C[C@@H](C)[C@H](CN(C)Cc1cncnc1)O2	0.1	i	9	4
56	COc1ccc(S(=O)(=O)N[C@@H]2CC[C@@H](CCn3cc(-c4cccc(F)c4)nn3)O[C@@H]2CO)cc1	2.6	i	-3	-3
57	C[C@@H]1CCCCO[C@@H](CN(C)C(=O)CCC(F)(F)F)[C@@H](C)CN([C@@H](C)CO)C(=O)c2cc(NS(=O)(=O)c3ccc(F)cc3)ccc2O1	-1.3	i	-5	1
58	O=C(c1cccnc1)N1C[C@H]2[C@@H](c3ccccc31)[C@H](CO)N2C(=O)Nc1ccccc1Cl	2.4	i	6	2
59	O=C(C[C@H]1C[C@H]2c3cc(NC(=O)NC4CCCC4)ccc3O[C@H]2[C@H](CO)O1)NCCN1CCCCC1	0.6	i	1	5
60	C[C@@H]1CN([C@H](C)CO)C(=O)c2cc(C#Cc3cccnc3)cnc2O[C@@H]1CN(C)Cc1ccc(F)cc1	0.9	i	5	2
61	Cc1cccc(S(=O)(=O)N2CC[C@@H]3[C@H]2c2cc(C#Cc4cccnc4)ccc2N[C@@H]3CO)c1	2.3	i	-6	-3
